High-throughput results (PubChem)
miR-21 reporter = miR-21 reporter, rising signal. HeLa miR-21 FLuc reporter, luciferase, 48 h. Potency, µM (highest dose often 38.3 µM), without a hit: at the highest dose reporter change, positive = more light. 340,000 tested, under 10 active. AID 2288; active = well fitted rising curve with a large enough effect; inconclusive = small, poorly fitted or top-dose-only effect; inactive = no such curve, though single readings can be large or run the other way;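 also: % of control where 0% means no effect; miR-21 action dims this reporter so a rising signal means less miR-21 action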
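Compounds were titrated across several concentrations (up to approximately 40 uM) and incubated 48 hours with HeLa miR-21-FLuc reporter cells (miR-21 target sequence downstream of FLuc, endogenous miR-21). Readout was firefly luciferase luminescence after lytic detection reagent.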
Rango dissoc inh = inhibitors of RanGTP-induced Rango-importin beta complex dissociation; O95149+P62826; 340,000 tested, 0.071% active; Biochemical FRET Rango-importin beta, RanGTP-induced dissociation; Potency, µM (titrated, usually from 46.1 µM), for the others: top-dose activity change, negative = inhibition; active means falling FRET ratio curve, often poorly fitted, with flat reads before Ran was added; inconclusive means other falling curves, or compound fluorescence or quenching; inactive means flat or rising ratio curve;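 also: potency is read from the fitted curve at half-maximal effect; % of control where 0% means no effect; nearly all actives have a fitted effect of over 45% in size; -100% = wells without RanGTP and RCC1; the record marks most hits as doubtful in a second field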
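Rango (0.1 uM)–importin beta (0.25 uM) complex; RanGTP-RCC1 trigger; 45 min RT; CFP/YFP FRET read.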
GLA inh pH 4.5 = blocks human alpha-galactosidase A at pH 4.5. P06280. AID 1467. activity change, negative = inhibition, % at 105 µM. purified enzyme, 4-MU-alpha-Gal fluorescence, pH 4.5. 230,000 tested, under 10 active; inconclusive = small, poorly fitted or top-dose-only inhibition, or a rising curve; inactive = flat fitted curve, though single readings scatter; no compound was filed as active;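 also: 0% = full activity with enzyme and -100% = basal without enzyme; dose as in the result columns while the protocol names 77 µM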
Target sequence (P06280 whole entry, looked up): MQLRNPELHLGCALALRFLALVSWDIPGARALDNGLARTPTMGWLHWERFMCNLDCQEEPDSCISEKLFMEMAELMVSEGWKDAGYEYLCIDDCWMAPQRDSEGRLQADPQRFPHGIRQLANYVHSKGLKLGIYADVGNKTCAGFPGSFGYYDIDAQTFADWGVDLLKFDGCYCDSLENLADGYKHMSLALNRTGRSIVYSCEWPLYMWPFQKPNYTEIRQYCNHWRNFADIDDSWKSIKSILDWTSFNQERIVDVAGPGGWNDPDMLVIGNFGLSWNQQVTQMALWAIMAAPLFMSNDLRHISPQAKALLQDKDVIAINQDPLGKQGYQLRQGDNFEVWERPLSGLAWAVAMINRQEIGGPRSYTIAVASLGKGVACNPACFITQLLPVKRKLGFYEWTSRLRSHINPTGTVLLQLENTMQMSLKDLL
Rango-impB inh = inhibitors of Rango-importin beta complex formation. Potency, µM (doses to about 92.2 µM), for the others: at the top dose inhibition of complex formation. AID 540263. Rango CFP/YFP FRET sensor + importin beta, 45 min. 340,000 tested, 0.031% active; active = rising FRET ratio curve, often small or poorly fitted; inconclusive = mostly compound fluorescence or quenching in the first reads; inactive = flat curves in all reads;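 also: potency is read from the fitted curve at half-maximal effect; 0% = DMSO wells and 100% = buffer wells lacking importin beta; nearly all actives have a fitted effect of over 15% in size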
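Inhibition scored from the CFP 486 nm/YFP 530 nm FRET ratio 45 min after adding 0.125 microM importin beta to 50 nM Rango biosensor preincubated 5 min with compound (room temperature, PBS with DTT, Tween-20, BSA). No-importin wells as positive control.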
* marks the source's active call; other numbers are inactive results; ? = inconclusive; · = not tested or not shown; & = joins results of further samples; [ ] = dose if it differs, or a comment.

miR-21 reporter,Rango dissoc inh,Rango-impB inh,GLA inh pH 4.5,smiles
-7%,-6%,2.3%,0,Cn1c(=O)c2c(ncn2CC(=O)OCC(=O)NC(c2ccccc2)c2ccccc2)n(C)c1=O
-4%,?,?,4,CCN1C=CC2=C(C#N)C(N)C(C#N)(C#N)C(c3ccccc3C(F)(F)F)C2C1 (configuration not stated)
·,1%,9.4%,·,Clc1cccc(Cl)c1C[n+]1cccc2ccccc21
·,-11%,2.4%,·,CCN1C(=O)[C@H]2[C@@H](c3ccc(C)cc3)N3C(=O)N(c4cccc(Br)c4)C(=O)[C@@]3(CC(C)C)[C@H]2C1=O
-4%,-5%,0.3%,5,Cc1cccc(NC(=O)CCN2CCOCC2)c1
0%,4%,-2.8%,?,CCCCC(=O)N/N=C(/C)C1=C(C)C(C)(C)OC1=O
·,14%,-0.2%,·,COc1ccc(S(=O)(=O)Nc2cc3c4c(c2)CCC(=O)N4CCC3)cc1C
-20%,0%,-1.0%,-5,O=C(Nc1cccc2cccnc12)c1ccc(Br)o1
13%,22%,0.8%,·,COc1ccc(CCNS(=O)(=O)c2ccc3c(c2)NC(=O)CCS3)cc1OC
-3%,4%,-0.3%,·,COc1ccccc1OCC(=O)N1CCCC(Nc2ccc(C)c(C)c2)C1 (configuration not stated)
0%,3%,0.2%,5,CC(=O)c1ccc(S(=O)(=O)N2CCN(C)CC2)cc1
6%,1%,-0.6%,12,CCc1c(C)nc2ncnn2c1N1CCCC(C(=O)Nc2cc(F)ccc2C)C1 (configuration not stated)
·,-11%,-0.4%,·,Cc1ccc(NC(=O)C2=CC=CN3CCS(=O)(=O)N=C23)cc1
-5%,-12%,1.1%,2,CC(C)c1ccc(OCC(=O)N(Cc2ccccc2)c2ccccn2)cc1
-5%,-3%,-6.6%,-8,CCn1c(C)nc2c(=O)oc3ccccc3c21
-5%,-3%,-1.0%,·,O=C(O)c1cccc(Nc2nc(-c3ccccc3)nc3ccccc23)c1
-3%,9%,2.9%,2,CCN(CC)CCNC(=O)Cn1nc(-c2ccccc2)c2ccccc2c1=O
-7%,10%,6.9%,1,COc1cc2c(C(=O)NCCCN3CC(C)CC(C)C3)cn(CC(C)C)c(=O)c2cc1OC (configuration not stated)
1%,0%,-5.3%,10,O=C(Nc1ccc(Cl)cn1)c1ccc(Br)c(S(=O)(=O)N2CCCCC2)c1
-1%,2%,-0.4%,·,Fc1cccc(Cl)c1CNCc1cccnc1
-32%,6%,1.6%,-1,CCc1nnc(NC(=O)c2cnccn2)s1
-5%,-2%,-1.2%,0,Cc1noc(C)c1COc1cccc(C(=O)OCCOc2ccc(F)cc2)c1
-2%,34%,-1.1%,·,O=C(NNc1ccc([N+](=O)[O-])cc1)c1ccco1
-2%,-8%,-5.3%,3,Cc1nc2c(C#N)c[nH]n2c(=O)c1CCO
·,22%,0.2%,·,Cc1noc(NS(=O)(=O)c2ccc(NC(=O)C(F)(F)C(F)(F)C(F)(F)F)cc2)c1C
14%,1%,1.1%,-2,O=C(CNS(=O)(=O)c1ccc(F)cc1)Nc1ccc(C(F)(F)F)cc1
-68%[0.307 µM],-2%,-1.7%,-2,CCOC(=O)Nc1sc2c(c1C#N)CCC(C)C2 (configuration not stated)
?,2%,-0.1%,·,COc1ccc(S(=O)(=O)/N=C2\C=C(Nc3ccc(O)cc3)C(=O)c3ccccc32)cc1
-1%,0%,0.6%,-4,CC(=O)Nc1ccc(C(=O)NNC(=O)CCc2ccccc2)cc1
-47%,-8%,0.4%,·,C/C(=N\Nc1nccnc1Cl)c1ccc(Br)cc1

In a second layout: results already given.
SMILES	miR-21 reporter	Rango dissoc inh	Rango-impB inh	GLA inh pH 4.5
O=C(Nc1ccc(Cl)cn1)c1ccc(Br)c(S(=O)(=O)N2CCCCC2)c1	1%	0%	-5.3%	10
CCc1nnc(NC(=O)c2cnccn2)s1	-32%	6%	1.6%	-1
Fc1cccc(Cl)c1CNCc1cccnc1	-1%	2%	-0.4%	·
COc1ccc(CCNS(=O)(=O)c2ccc3c(c2)NC(=O)CCS3)cc1OC	13%	22%	0.8%	·

More entries follow.
miR-21 reporter,Rango dissoc inh,Rango-impB inh,GLA inh pH 4.5,smiles
-6%,2%,-0.6%,·,O=C(NCc1ccccc1Cl)C1CCC(=O)N(C2CC2)C1 (configuration not stated)
·,-2%,-1.0%,·,Cc1ccc(N(CCC#N)C(=O)COC(=O)C2=COCCO2)cc1
·,-1%,?,·,COc1cc(OC)cc(-c2c(-c3cccs3)c3cc(-c4ccc(OC)c(OC)c4)ccc3n2C)c1
·,26%,-0.8%,·,Nc1ccc2c(c1)C(=O)c1cc(Cl)c(Cl)cc1-2
-7%,-6%,-1.0%,10,CC(C)NS(=O)(=O)c1ccc(CCC(=O)N2CCCCC2)cc1
26%,5%,-7.9%,1,[O-][n+]1onc2c1CCc1c-2nn(-c2ccccc2Cl)[n+]1[O-]
-3%,-11%,-3.2%,8,CCOc1nc(S(=O)(=O)c2ccc(C)cc2)c(Cl)s1
-1%,3%,-4.1%,-9,CC(=O)N1CCCc2cc(S(=O)(=O)NC(C(=O)NCc3ccc(C)cc3)C(C)C)ccc21 (configuration not stated)
-5%,3%,-1.1%,-2,COC(=O)c1c(NC(=O)C2(C)Cc3ccccc3C(=O)O2)sc2c1CCCC2 (configuration not stated)
-7%,1%,3.0%,2,CC1(C)CC(=O)C(C=NCCN2CCN(CC(=O)Nc3ccccc3)CC2)=C(O)C1
-1%,?,?,19,CCOC(=O)c1cc2c(=O)n3ccccc3nc2n(C(C)C)c1=NC(=O)c1ccco1
-3%,2%,-1.5%,-1,COc1cc(S(=O)(=O)NC2CCCCC2)ccc1Cl
4%,0%,-4.4%,·,O=C(NC1CC1)C1CC(=O)N(c2cccc(Cl)c2Cl)C1 (configuration not stated)
2%,-6%,-1.8%,7,CN(C(=O)CSc1nnc(NC2CCCCC2)s1)C1CCS(=O)(=O)C1 (configuration not stated)
0%,23%,-1.7%,-2,CC1(C)CC2CC(C)(CN2C(=O)COC(=O)c2ccc(Cl)c(N)c2)C1 (configuration not stated)
-1%,21%,6.5%,-14,CCC(=O)c1c[nH]c(C(=O)NCCCn2ccnc2)c1
-2%,?,5.1%,4,Cc1cc(C)cc(N(C(C)C(=O)NC2CCCC2)S(C)(=O)=O)c1 (configuration not stated)
22%,-11%,1.7%,-6,CCN(CC)CCCNC(=O)c1cc(-c2ccc(Cl)c(Cl)c2)on1
-13%,16%,?,-8,CCN(CCCNC(=O)CNC(=O)Cn1cnc2ccccc2c1=O)c1cccc(C)c1
-3%,1%,0.1%,2,Cc1cc(Cl)cc(C)c1OCCCCN1CCOCC1
-1%,9%,-1.8%,3,O=C(CSc1ncc(-c2ccc(F)cc2)n1Cc1ccco1)Nc1nccs1
-46%,16%,-1.2%,-12,O=C(c1cc2cc([N+](=O)[O-])ccc2s1)N1CCCCC1
-2%,-9%,?,-14,CC(C)OC(=O)CSc1ncnc2c1cnn2-c1ccccc1
-4%,-6%,-1.1%,-7,CCN(CC)c1ccc(NC(=O)CN2CCN(c3ccc(F)cc3)CC2)cc1
·,5%,2.0%,·,CCOc1ccc(C(=O)OCC(=O)Nc2cccc(S(=O)(=O)N3CCCC3)c2)cc1
-4%,?,?,4,Fc1ccc(C2=CC(c3ccco3)n3ncnc3N2)cc1 (configuration not stated)
-15%,3%,6.9%,-4,CC(=O)Nc1ccc2c(c1)CCCC2
-2%,1%,0.1%,-11,O=C(COC(=O)[C@@H]1CCCN1S(=O)(=O)c1ccccc1F)Nc1ccc(OC(F)F)cc1
·,15%,-2.0%,·,C[C@@H]1CN([C@H](C)CO)C(=O)c2cc(NC(=O)NC3CCCCC3)ccc2O[C@H]1CN(C)S(C)(=O)=O
21%,-10%,?,-9,COc1ccc(C(CC(=O)c2ccc(C)cc2)C(C#N)C#N)cc1OC (configuration not stated)
1%,12%,-1.4%,-1,COC(=O)c1c(C)nn(-c2ccccc2)c1-n1cccc1
-12%,26%,-4.3%,1,CCOC(=O)c1cc(-c2ccccc2)sc1NC(=O)COC
27%,0%,4.1%,6,O=C(C1CCCN(S(=O)(=O)c2cccc3nsnc23)C1)N1CC=C(c2ccccc2)CC1 (configuration not stated)
-6%,1%,-0.3%,-4,O=c1c2ccccc2nc(/C=C/c2c[nH]c3ccccc23)n1-c1ccc([N+](=O)[O-])cc1
-3%,6%,-0.9%,-4[21.1 µM],COc1ccc(Br)cc1/C=N/NC(=O)c1ccco1
0%,-17%,1.2%,4,COc1ccc(C)cc1NC(=O)CC(NC(C)=O)c1ccccc1 (configuration not stated)
5%&7%,-11%&-2%,-4.6%&-0.2%,1&-4,O=[N+]([O-])c1ccc(SCCc2ccncc2)cc1
0%,-23%,2.1%,-7,O=[N+]([O-])c1ccc(/C=N/Nc2nc(N3CCCCC3)nc(N3CCCCC3)n2)o1
3%,2%,-3.6%,·,Cc1ccccc1NC(=O)C(=O)NNC(=O)COc1ccc2ccccc2c1
-5%,-24%,1.9%,-2,Cc1oc(-c2cccs2)nc1CN1CC[C@@](O)(c2ccccc2)[C@H]2CCCC[C@@H]21
-1%,-15%,1.2%,·,CC(=O)Nc1ccc(OC(=O)Cc2ccc(Cl)cc2)cc1
23%,4%,2.8%,-5,COc1ccc(Cl)cc1C(=O)C1CCCN(Cc2cnc(N3CCOCC3)s2)C1 (configuration not stated)
0%,-9%,-3.7%,-3,CC1CC(Nc2ccccc2)=CC(=O)O1 (configuration not stated)
-3%,-4%,2.4%,·,O=C(NC1CCCCC1)C(c1ccccc1F)N(Cc1ccco1)C(=O)c1ccccn1 (configuration not stated)
1%,-15%,0.5%,·,O=C(CSc1nc2nccnc2c(=O)n1Cc1cccs1)Nc1ccccc1
-26%,3%,1.0%,1,O=C(NCC(O)c1ccccc1)c1ccccc1 (configuration not stated)
·,1%,0.9%,·,CCc1noc(C)c1C(=O)NNC(=O)COc1ccccc1C
-28%,-8%,?,2,c1ccc(-c2nc3c(ccc4ccccc43)[nH]2)nc1
8%,10%,-2.4%,·,CSCCC(NC(=O)COc1ccccc1)C(=O)NCCOc1ccc(C)cc1 (configuration not stated)
-3%,15%,-0.5%,·,O=C(CCCc1ccccc1)NCc1ccc2c(c1)OCO2
-47%,-2%,-0.6%,4,CC(=O)Nc1cccc(OCC(=O)NCCC2=CCCCC2)c1
-36%,2%,0.3%,·,Cn1cc(Cl)cc(C(=O)Nc2ccccc2)c1=O
27%,-2%,3.6%,2,Cc1ccc(S(=O)(=O)N2c3ccccc3OCC2c2ccccc2)cc1 (configuration not stated)
-2%,10%,?,5,COC(=O)c1ccc(C(=O)OC)c(NC(=S)N2CCN(C)CC2)c1
-31%,?,?,-6,O=C(Nc1nc2ccc([N+](=O)[O-])cc2s1)c1ccncc1
7%,30%,2.6%,·,COc1cc(CC(=O)OCC(=O)N2CCCCC2C)cc(OC)c1OC (configuration not stated)
-4%,24%,-3.8%,-1,Cc1nc(C)c(NC(=O)OC(C)C)cc1NC(=O)OC(C)C
-34%,0%,0.1%,4,N#Cc1c(N)n[nH]c1-c1cc2c([nH]1)CCCC2
-12%,-26%,?,-10,Cc1ccc(NC(=O)N/C=C/c2ccco2)cc1C
-8%,4%,0.7%,-9,CCCCNCc1ccc(SC)cc1
0%,3%,1.5%,·,COc1ccc(CN2C(=O)c3cccnc3C2=O)cc1S(=O)(=O)N1CCOc2ccccc21

The list is partial; rates above refer to the full screens.
